Assay outcomes (PubChem)
Cruzain inh noDet – cruzain (T. cruzi) inhibition without detergent | P25779 | purified cruzain, Z-FR-AMC fluorescence, no detergent | Potency, µM, inactives show max response, negative = inhibition, actives largely listed as inhibitors | hit rate 2.3% among 200,000 | AID 1476;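 further: plate controls were enzyme without inhibitor for no effect and buffer without enzyme for full effect; nearly all actives have a fitted effect of over 40% in size; top concentration of the series not given in the record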
Target sequence (P25779 123-467 limits assumed): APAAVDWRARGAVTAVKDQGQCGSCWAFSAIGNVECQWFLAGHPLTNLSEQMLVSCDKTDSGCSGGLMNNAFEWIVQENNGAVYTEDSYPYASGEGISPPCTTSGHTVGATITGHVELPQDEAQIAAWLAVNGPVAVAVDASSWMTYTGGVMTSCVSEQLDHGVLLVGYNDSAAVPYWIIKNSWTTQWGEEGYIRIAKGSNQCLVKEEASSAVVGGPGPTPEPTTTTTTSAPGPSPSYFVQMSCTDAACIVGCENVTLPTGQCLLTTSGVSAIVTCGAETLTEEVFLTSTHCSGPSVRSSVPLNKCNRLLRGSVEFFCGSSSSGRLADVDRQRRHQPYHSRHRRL
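Detergent-free condition (0.00005% Triton X-100) in acetate buffer pH 5.5 with DTT. 1.5 nM enzyme and compound were pre-mixed 15 min, then 2 uM Z-FR-AMC substrate added; reaction progress from fluorescence change between first and third reads (60 s).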
RE007 growth inh – less growth of the S. pombe RE007 Vpr strain. S. pombe RE007 Vpr strain, BacTiter-Glo ATP luminescence, 24 h; control for the full effect not named in the record. Potency, µM (titrated, usually from 92.2 µM), inactives show at the highest dose activity change, negative = less growth. hit rate 0.21% among 360,000. AID 651644; active = well fitted falling curve with a large enough effect; inconclusive = small, poorly fitted or top-dose-only effect; inactive = no such curve, though single readings can be large or run the other way;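 further: on the % scale 0 is the no-effect control and ±100 the full control effect; nearly all actives have a fitted effect of over 50% in size; the assay follows cell death caused by Vpr and the record does not say whether a fall means rescue or toxicity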
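Fission yeast strain RE007, carrying one chromosomally integrated HIV-1 vpr copy, was seeded at OD 0.01 in PMG+AL medium with 23 nL pinned compound. After 24 h at 30 °C and 99% humidity, viability was read by BacTiter-Glo luminescence.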
Cruzain Triton – cruzain (T. cruzi) inhibition with detergent; AID 1478; Potency, µM, without a hit: max response, negative = inhibition, actives largely listed as inhibitors; P25779; hit rate 0.43% among 200,000; purified cruzain, Z-FR-AMC fluorescence, 0.01% Triton;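 further: plate controls were neutral wells for no effect and buffer without enzyme for full effect; nearly all actives have a fitted effect of over 40% in size; top concentration of the series not given in the record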
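Detergent-containing arm of a paired screen for aggregation-based inhibition: 0.01% Triton X-100 present. Cruzain at 1.5 nM cleaved 2 uM Z-FR-AMC at pH 5.5 with 5 mM DTT; AMC fluorescence gain over 60 s measured activity.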
LASV entry inh – Lassa virus entry inhibition; hit rate 1.2% among 300,000; Potency, µM (series often up to 37.9 µM), for the others: top-dose activity change, negative = inhibition, actives largely listed as inhibitors; Lassa virus pseudotype entry inhibition, cell reporter; control for the full effect not named in the record; active means well fitted inhibition curve with a large enough effect; inconclusive means small, poorly fitted or top-dose-only effect, or effect the other way; inactive means flat fitted curve, though single readings scatter; tested in HEK293 cells; further: on the % scale 0 is the no-effect control and ±100 the full control effect; nearly all actives have a fitted effect of over 50% in size; luciferase read-out
NS1 inh – inhibitors of influenza NS1 protein function | hit rate 0.4% among 270,000 | Potency, µM (series often up to 46.1 µM), for the others: at the top dose activity, positive = more growth | S. cerevisiae slowed by influenza A NS1, growth recovery by OD600; active means well fitted rising curve with a large enough effect; inconclusive means small, poorly fitted or top-dose-only effect; inactive means no such curve, though single readings can be large or run the other way; further: nearly all actives have a fitted effect of over 50% in size
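S. cerevisiae expressing influenza A NS1, grown in glucose, washed, then diluted 1:100 into pH 6.0 -URA galactose medium with 23 nl compound. Growth recovery read as OD600; NS1-free strain serves as control.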
2A StopGo – FMDV 2A StopGo reporter, luciferase signal; Potency, µM (series often up to 57.9 µM), without a hit: top-dose signal change, negative = less light; human cells with a luciferase reporter of 2A StopGo recoding; control for the full effect not named in the record; hit rate 1.2% among 410,000; active = well fitted falling curve with a large enough effect; inconclusive = small, poorly fitted or top-dose-only effect; inactive = no such curve, though single readings can be large or run the other way; tested in HEK293T cells; further: on the % scale 0 is the no-effect control and ±100 the full control effect; nearly all actives have a fitted effect of over 45% in size; luciferase light after 4 h
MARV entry inh – Marburg virus entry inhibition | Marburg virus pseudotyped entry inhibition, cell reporter; control for the full effect not named in the record; about a third of the inactives were read at about 46 µM | Potency, µM (highest dose often 37.8 µM), for the others: at the highest dose activity change, negative = inhibition, hits mostly inhibitors | hit rate 1.8% among 300,000 | AID 540276; active = well fitted inhibition curve with a large enough effect; inconclusive = small, poorly fitted or top-dose-only effect, or effect the other way; inactive = flat fitted curve, though single readings scatter; tested in HEK293 cells; about a fifth of its hits are not listed in these tables; further: on the % scale 0 is the no-effect control and ±100 the full control effect; luciferase read-out
SARS PLP yeast – SARS-CoV PLP inhibition in yeast | S. cerevisiae expressing SARS-CoV PLpro, growth rescue; control for the full effect not named in the record | Potency, µM (highest dose often 32.9 µM), for the others: at the top dose activity, positive = growth rescue | hit rate 0.19% among 330,000 | AID 485353; active means well fitted rising curve with a large enough effect; inconclusive means small, poorly fitted or top-dose-only effect; inactive means no such curve, though single readings can be large or run the other way; further: 0% is about no effect; nearly all actives have a fitted effect of over 55% in size; growth read by luminescence after 48 h
* = called active by the depositor; ? = inconclusive; nt = not tested or not shown; & = joins results of further samples; [ ] = another dose, or the depositor's remark. Unless noted, the call rests on the fitted dose curve; in most records, active means well fitted curve in the direction sought with a large enough effect; inconclusive means small, poorly fitted or top-dose-only effect, or another doubt; inactive means no such curve, though single readings can be large; an effect the other way counts as inactive or inconclusive. Potency means the concentration at half of the fitted maximal effect.

Second line of a record – Cruzain inh noDet | RE007 growth inh | Cruzain Triton | LASV entry inh | NS1 inh | 2A StopGo | MARV entry inh | SARS PLP yeast
> COn1c2c(c3c4no[n+]([O-])c4ccc31)CCCC2
→ 20µM* | -8% | 1.2% | 0% | -3% | nt | -6% | -9%
> Cc1cc(O)c(C(c2ccccc2Cl)N2CCCCC2)c(=O)n1Cc1ccco1 (stereo not given)
→ -29% | nt | 2.7% | -29%[46.1 µM] | nt | -10% | nt | nt
> c1csc(-c2nc(N3CCCCC3)no2)c1
→ nt | ? | nt | ? | -5% | 24% | ? | 0%
> O=C1/C(=C/c2cccnc2)SC(=NCc2ccccc2)N1Cc1ccccc1
→ nt | 10% | nt | 0%[46.1 µM] | 6% | -5% | ? | 0%
> C[C@@H]1OC(Nc2ccc(N=Nc3ccccc3)cc2)[C@H](O)[C@H](O)[C@H]1O (stereo not given in full)
→ nt | -28% | nt | 1% | 0% | 20% | 4%[46.1 µM] | -1%
> O=C(NC1CCN(Cc2ccccc2)C1)c1cccc(S(=O)(=O)N2CCOCC2)c1 (stereo not given)
→ nt | -14% | nt | 1% | nt | -9% | -20% | -8%
> CC(c1ccccc1F)n1cc(C(=O)NCCCc2nc3ccccc3[nH]2)nn1 (stereo not given)
→ nt | -6% | nt | 0% | 1% | -15% | -13%[46.1 µM] | -1%
> COCCNC(=O)c1cc2cc3ccc(OC)cc3nc2o1
→ nt | -11% | nt | nt | -3% | 28% | nt | 6%
> COc1cccc(NC(=O)CN(C)C(=O)c2cn(-c3ccccc3)nc2-c2cccnc2)c1
→ nt | 3% | nt | 2% | nt | -18% | -1% | -3%
> Cc1ccc(NC(=O)COc2coc(CN3CCc4ccccc4C3)cc2=O)c(C)c1
→ nt | 3% | nt | 1% | nt | ? | 0% | 2%
> C/C=C/COC(=O)C1=C(C)NC(=O)NC1c1ccc2c(c1)OCO2 (stereo not given)
→ nt | ? | nt | 17%[46.1 µM] | -3% | 0% | -9%[46.1 µM] | -5%
> O=C(CCS(=O)(=O)c1ccc(Cl)cc1)Oc1ccc2c(c1)OCO2
→ -3% | -13% | -16% | 0% | -33% | -4% | -9% | 1%
> Nc1c(C(=O)C2CC2)sc2nc3c(cc12)CCC3
→ nt | -1% | nt | nt | -3% | 49%[activator] | nt | 0%
> COCCC(=O)N1CCC(Oc2ccc(C(=O)N3C[C@H]4CC[C@H]3C4)cc2)CC1
→ nt | 11% | nt | ? | 5% | 4% | ? | -2%
> COc1ccc(OC)c(NC(=O)COc2ccc(Br)cc2)c1
→ nt | -3% | nt | nt | -51% | 14% | nt | -1%
> CN(C)C(=S)NC(=O)C12CC3CC(C)(CC(C)(C3)C1)C2
→ nt | -14% | nt | -17%[46.1 µM] | -2% | -17% | -10%[46.1 µM] | 1%
> COc1ccc(-c2cc(C(F)(F)F)c(C#N)c(SCC(=O)Nc3nc(C)co3)n2)cc1
→ 14% | 1% | 10% | -37%[14.3 µM] | -3% | 18% | ? | 1%
> CCOP(=S)(OCC)SCC(=O)NC(C)(CC)C(=O)O (stereo not given)
→ 9% | -6% | 4.7% | 13% | 2% | -11% | -1% | -1%
> O=C(O)C1CCN(S(=O)(=O)c2ccc3c(c2)OCCCO3)CC1
→ nt | -4% | nt | -1%[46.1 µM] | nt | -12% | 7%[46.1 µM] | 0%
> COc1cccc(N(CC(=O)NC2CCCCC2)C(=O)c2snc(C(N)=O)c2N)c1
→ nt | -5% | nt | nt | 14% | 24% | 14%[46.1 µM] | -3%
> Cc1cc(C)n(-c2ccc(Cl)c(C(=O)OCC(=O)N3CCCCC3C)n2)n1 (stereo not given)
→ -17% | 3% | 0.0% | 1% | -8% | -6% | 3%&3% | 7%
> Cc1ccc(NC(=S)Nc2ccc(C(C)C)cc2)cc1S(=O)(=O)N1CCCCCC1
→ -23% | 0% | -5.3% | ? | ? | 0% | ? | ?
> Cc1ccc(-n2ncc3c(N4CCCC(C)C4)ncnc32)c(C)c1 (stereo not given)
→ nt | 14% | nt | nt | 5% | -21% | 0% | -2%
> O=C(N/N=C1/SCC(=O)N1Cc1ccco1)c1ccccc1F
→ nt | 1% | nt | 8% | 8% | 4% | -1%[14.2 µM] | -2%
> N#CCC(=O)N/N=C\c1ccccc1OC/C=C/c1ccccc1
→ nt | -5% | nt | nt | 2% | 35%[activator] | nt | -7%
> CCCCN1CN(Cc2ccccc2)CNC1=S
→ 13% | 5% | 0.0% | -1% | -15% | -6% | 13% | ?
> CCCCCCn1c(-c2cccs2)n[nH]c1=S
→ nt | -9% | nt | -5%[46.1 µM] | -28% | 22% | -26%[46.1 µM] | -6%
> COc1ccc(CN2CC=C(c3ccc(F)cc3)CC2)cc1Br
→ nt | -23% | nt | 2%[46.1 µM] | -13% | -24% | ? | 5%
> COc1ccc(CC(=O)OC(C)C(=O)Nc2ccc(S(N)(=O)=O)cc2)cc1 (stereo not given)
→ nt | -14% | nt | 21% | nt | -6% | 15% | -2%
> COCCNC(=O)CN(c1ccc(F)cc1)S(=O)(=O)c1ccc2c(c1)OCCO2
→ nt | -6% | nt | -24%[46.1 µM] | -2% | 12% | ? | 0%
> O=C(COC(=O)c1ccc(Cl)c(S(=O)(=O)N2CCCCCC2)c1)Nc1ccccc1
→ ? | 14% | -2.4% | ? | 34% | -9% | -7% | -15%
> O=C(Nc1nccs1)c1cc2c(s1)-c1ccccc1OC2
→ ? | -9% | -7.2% | nt | -58% | 31%[activator] | nt | -3%
> Cc1ccc(S(=O)(=O)N2CCCC(N3CCOCC3)C2)cc1Cl (stereo not given)
→ nt | -1% | nt | nt | -22% | -8% | nt | -4%
> C/C(=N\NC(=O)COc1ccc(C#N)cc1)c1ccccc1OC(F)F
→ 4% | 7% | -3.3% | -18% | -1% | -7% | 22% | -22%
> CN(C)S(=O)(=O)c1ccc(C(=O)Nc2ccc(F)cc2F)cc1
→ 2% | -2% | -6.9% | nt | -35% | 3% | nt | -6%
> COc1ccc(OC)c(NC(=O)c2ccc(CSc3ncccn3)cc2)c1
→ nt | -2% | nt | -24% | -2% | -6% | -1%[46.1 µM] | -1%
> Cc1ccc(-n2c(CCc3ccccc3)nnc2SCC(=O)NCc2ccccc2)cc1C
→ ? | 0% | -6.4% | -37% | -47% | ? | ? | -1%
> Cn1c(=NC(=O)c2ccc(S(=O)(=O)N3CCCC3)cc2)sc2cc(F)ccc21
→ -1% | nt | 0.5% | -1%[46.1 µM] | nt | -10% | nt | nt
> CCCCOc1ccc(C(=O)N2CCN(CC(=O)Nc3ccc(C)cc3)CC2)cc1OC
→ nt | 12% | nt | -15%[46.1 µM] | -4% | -16% | ? | 10%
> CCCCN(C(=O)CCn1c(=O)oc2ccccc21)c1ccccc1
→ 2% | -6% | -1.3% | -5%[46.1 µM] | -2% | 0%&0% | -14%&-14%[46.1 µM] | -4%
> O=C(c1ccc(N2CCCC2=O)cc1)N1CCN(c2cccc(C(F)(F)F)c2)CC1
→ nt | -12% | nt | -7% | nt | ? | -19% | -3%
> CC1CCN(S(=O)(=O)c2ccc(C(=O)Nc3sc4c(c3C(N)=O)CC(C)(C)NC4(C)C)cc2)CC1
→ 0% | nt | 0.2% | -25%[46.1 µM] | nt | 8% | nt | nt
> O=c1cc(N2CCc3ccccc32)[nH]c(=O)n1-c1ccccc1
→ -15% | 37% | -0.4% | 8% | ? | -22% | -2% | 6%
> CCn1c(CCNC(=O)c2ccc(Cl)c(Cl)c2)nnc1SCCOc1ccc(OC)cc1
→ 14% | -3% | ? | 7% | 14% | 40µM* | -25% | 2%
> Cc1ccn2c(=O)nc(SCC(=O)NCc3ccco3)nc2c1
→ nt | -15% | nt | 7%[46.1 µM] | nt | -9% | 2% | nt
> COc1ccc(OCC(=O)Nn2c(-c3cccc(OC)c3)nc3ccccc3c2=O)cc1
→ -8% | 0% | -5.7% | -14% | 9% | 0% | -8% | 11%
> Cc1cc(Br)cn2cc(C(=O)O)nc12
→ nt | 10% | nt | 14% | nt | -13% | -3%[46.1 µM] | 3%
> O=C(O)c1cccnc1Oc1ccccc1
→ -8% | 0% | 0.5% | 1% | 0% | -15% | 16% | -12%

An excerpt from above in order of molecular weight, highest first:
Second line of a record – Cruzain inh noDet | RE007 growth inh | Cruzain Triton | LASV entry inh | NS1 inh | 2A StopGo | MARV entry inh | SARS PLP yeast
> CCn1c(CCNC(=O)c2ccc(Cl)c(Cl)c2)nnc1SCCOc1ccc(OC)cc1
→ 14% | -3% | ? | 7% | 14% | 40µM* | -25% | 2%
> Cc1ccc(-n2c(CCc3ccccc3)nnc2SCC(=O)NCc2ccccc2)cc1C
→ ? | 0% | -6.4% | -37% | -47% | ? | ? | -1%
> CCCCOc1ccc(C(=O)N2CCN(CC(=O)Nc3ccc(C)cc3)CC2)cc1OC
→ nt | 12% | nt | -15%[46.1 µM] | -4% | -16% | ? | 10%
> COc1ccc(OCC(=O)Nn2c(-c3cccc(OC)c3)nc3ccccc3c2=O)cc1
→ -8% | 0% | -5.7% | -14% | 9% | 0% | -8% | 11%
> O=C(c1ccc(N2CCCC2=O)cc1)N1CCN(c2cccc(C(F)(F)F)c2)CC1
→ nt | -12% | nt | -7% | nt | ? | -19% | -3%
> Cc1ccn2c(=O)nc(SCC(=O)NCc3ccco3)nc2c1
→ nt | -15% | nt | 7%[46.1 µM] | nt | -9% | 2% | nt
> O=c1cc(N2CCc3ccccc32)[nH]c(=O)n1-c1ccccc1
→ -15% | 37% | -0.4% | 8% | ? | -22% | -2% | 6%
> Cc1cc(Br)cn2cc(C(=O)O)nc12
→ nt | 10% | nt | 14% | nt | -13% | -3%[46.1 µM] | 3%
> O=C(O)c1cccnc1Oc1ccccc1
→ -8% | 0% | 0.5% | 1% | 0% | -15% | 16% | -12%
